# Assay outcomes (PubChem)
# rRNA inh HTS – inhibitors of bacterial rRNA selective over humanized ribosomes; E. coli WT GFP vs humanized-ribosome RFP mutants, fluorescence, 24 h; hits give low values; DMSO median 0, no signal -100; GFP signal change (wild-type ribosome), % (no concentration beside the values); 1.6% of 350,000 active; AID 720706;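 active means significant combined selectivity score with lowered wild-type GFP, culture density cut under 30%, mutant RFP and density less affected; inactive means any of these conditions unmet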; further: one replicate is shown; some compounds called inactive have numbers as strong as hits
# FGF22 binding – binders of recombinant human FGF22 by thermal shift | calls only at 9.99 µM | SYPRO orange fluorescence; percent of sucrose octasulfate shift, DMSO zero | 1.5% of 340,000 active | Q9HCT0 | AID 651658;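 active means melting point raised past a set limit in the mean and every replicate; inconclusive means no clear call; three in four hits are not shown here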
# Target sequence (Q9HCT0 whole entry, looked up): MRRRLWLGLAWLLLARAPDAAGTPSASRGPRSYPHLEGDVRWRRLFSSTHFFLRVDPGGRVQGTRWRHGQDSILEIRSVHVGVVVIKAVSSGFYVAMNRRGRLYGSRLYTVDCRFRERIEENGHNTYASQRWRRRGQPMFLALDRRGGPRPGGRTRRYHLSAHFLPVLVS
# AF4-AF9 inh – inhibitors of human MLL-AF4/AF9 interaction | 0.47% of 350,000 active | AlphaScreen, biotin-AF4 peptide binding to FLAG-AF9 | inhibition, % at 10 µM;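 active means every replicate reaching a set inhibition limit, whatever the replicate mean, cut at about 25% in these data; inconclusive means mean inhibition reaches that limit but some replicates miss it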;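 further: 0% = plate neutral control median and 100% = total signal loss; the record names both 10 and 1 µM as test concentration; the first replicate is given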
# Target sequence (P42568 whole entry, looked up): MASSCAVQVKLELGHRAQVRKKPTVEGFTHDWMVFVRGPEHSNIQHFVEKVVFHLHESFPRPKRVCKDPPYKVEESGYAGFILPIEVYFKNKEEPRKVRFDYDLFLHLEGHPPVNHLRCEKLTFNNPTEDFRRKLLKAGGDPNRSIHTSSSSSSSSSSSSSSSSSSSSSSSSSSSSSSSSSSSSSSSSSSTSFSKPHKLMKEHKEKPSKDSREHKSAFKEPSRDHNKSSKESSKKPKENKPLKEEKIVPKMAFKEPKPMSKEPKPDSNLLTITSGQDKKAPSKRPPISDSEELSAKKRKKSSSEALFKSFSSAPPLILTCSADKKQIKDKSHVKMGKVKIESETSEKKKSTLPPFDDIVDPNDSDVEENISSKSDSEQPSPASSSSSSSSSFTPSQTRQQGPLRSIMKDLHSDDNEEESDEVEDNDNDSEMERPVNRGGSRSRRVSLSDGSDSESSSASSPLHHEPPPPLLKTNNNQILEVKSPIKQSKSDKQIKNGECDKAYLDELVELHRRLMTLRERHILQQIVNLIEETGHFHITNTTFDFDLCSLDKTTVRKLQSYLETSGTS
# rRNA inh HTS OD600 – recorded beside rRNA inh HTS, whose call it bears; OD600 change, %; measured here: OD600 growth;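 optical density of the mix in the first replicate; 0 = DMSO median and -100 = no signal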
# rRNA inh HTS RFP – recorded beside rRNA inh HTS, whose call it bears; RFP signal change, %; measured here: RFP humanized mutant strains;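 first replicate; 0 = DMSO median and -100 = no signal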
# * = called active by the depositor; i = inactive; ? = inconclusive; & = joins results of further samples.
SMILES,rRNA inh HTS,rRNA inh HTS OD600,rRNA inh HTS RFP,FGF22 binding,AF4-AF9 inh
C[C@H](CO)N1C[C@H](C)[C@H](CN(C)CC2CC2)Oc2cc(-c3ccccc3F)ccc2S1(=O)=O,5,-13,0.3,i,7.4
COc1ccc(Cl)cc1-c1noc([C@@H]2O[C@H](CO)[C@@H](O)[C@H]2O)n1,7,7,0.6,i,-0.9
Cc1cccc(C)c1-n1nnnc1C1(C)CCC(=O)N1CC(F)(F)F (stereo not given),7,16,1.9,i,-4.2
CC(C)NC(=O)Nc1ccc2c(c1)CC(=O)N([C@H](C)CO)C[C@@H](C)[C@@H](CN(C)Cc1ccccc1)O2,2,7,2.4,i,-0.6
CCCCOCCCNC(=O)C[C@@H]1C[C@@]2(C(=O)OCC)CCC=C2N(Cc2ccco2)C1=O,8,15,-0.9,i,-0.6
O=C(CSc1nnc(-c2ccncc2)n1C1CC1)c1cccs1,-8,4,-3.2,i,0.6
CNC[C@H]1Oc2cc(C#CCC(C)C)ccc2S(=O)(=O)N([C@H](C)CO)C[C@@H]1C,3,1,0.4,i,4.1
CO[C@H]1CN(C)C(=O)c2cc(NC(=O)NC(C)C)ccc2OC[C@@H](C)N(C(=O)C2CCC2)C[C@H]1C,-1,-4,0.3,i,1.2
COc1ccc2c3c(n(C)c2c1)[C@H](CO)N(C(=O)NC(C)C)CC31CN(CC2CCOCC2)C1,3,8,-0.9,i,-2.1
CNC(=O)C[C@H]1CC[C@H]2[C@H](COc3ccc(NC(=O)c4cccc(OC)c4)cc3C(=O)N2C)O1,1,-1,-1.6,i,-3.8
Cc1noc(C)c1S(=O)(=O)NC(=O)C1(C)CCN1C(=O)C1(c2ccc(Cl)cc2)CCC1 (stereo not given),2,19,-0.3,i,-0.5
CC(C)Nc1nc(NCCOc2ccccc2)c2sccc2n1,-56,-79,-19,i,7.5
Cc1noc(C)c1NC(=O)N(C)C[C@@H]1Oc2cc(C#CCC(C)C)ccc2S(=O)(=O)N([C@H](C)CO)C[C@@H]1C,-2,2,3.1,i,14
Cc1noc(C)c1NC(=O)N(C)C[C@@H]1OCc2cnnn2CCCC(=O)N([C@H](C)CO)C[C@H]1C,4,2,-0.9,i,-1.2
COc1ccccc1S(=O)(=O)N[C@@H]1CC[C@@H](CC(=O)NCc2cccc(F)c2)O[C@H]1CO,0,5,-0.3,i,-0.7
CCCN(C)C[C@H]1OCCCC[C@H](C)Oc2ccc(NS(=O)(=O)c3cccs3)cc2C(=O)N([C@@H](C)CO)C[C@H]1C,-2,-3,1.3,i,0.0
O=C(Nc1nnc([C@@H]2C[C@H](O)[C@@H](CO)O2)s1)Nc1cccc2c1CCCC2,-1,10,4.5,i,-2.2
O=C(C[C@@H]1C[C@H]2c3cc(NC(=O)NC4CCCC4)ccc3O[C@H]2[C@H](CO)O1)NCc1cccc(F)c1,-4,1,-0.2,i,-0.8
CN1[C@H](C(=O)NCCN2CCCC2)[C@@H](CO)[C@@H]2Cn3c(ccc(/C=C/c4ccccc4)c3=O)[C@@H]21,4,3,-3.1,i,3.7
CO[C@@H]1CN(C)C(=O)c2ccc(NC(=O)Nc3ccccc3F)cc2OC[C@@H](C)N(C(=O)c2cnccn2)C[C@H]1C,3,1,1.1,i,-0.2
Cc1ccc(S(=O)(=O)Nc2ccc3c(c2)C(=O)N([C@H](C)CO)C[C@H](C)[C@H](CN(C)C(=O)Nc2c(C)noc2C)OCCCC[C@@H](C)O3)cc1,5,11,-0.3,i,-2.4
O=C(NCC[C@H]1CC[C@H](NC(=O)c2cccnc2)[C@H](CO)O1)Nc1ccc(C(F)(F)F)cc1,1&-60,2&-81,-0.2&-20,i,18
CNC[C@H]1Oc2ccc(NS(=O)(=O)c3ccccc3)cc2CC(=O)N([C@H](C)CO)C[C@@H]1C,1,7,-0.2,i,-2.3
C[C@@H]1CCCCO[C@H](CN(C)Cc2ccncc2)[C@@H](C)CN([C@H](C)CO)C(=O)c2cc(NS(=O)(=O)c3ccc(Cl)cc3)ccc2O1,4,-1,1.8,i,-3.0
O=C(C[C@@H]1CC[C@@H]2[C@H](COC[C@@H](O)CN2S(=O)(=O)c2ccccc2)O1)NCc1ccc2c(c1)OCO2,1,-9,0.4,i,11
CCCCCCN1CCN(C2CN(Cc3cn(Cc4cc(C)cc(C)c4)nn3)S(=O)(=O)C2)CC1 (stereo not given),6,-34,39,i,3.8
CN1OC[C@@H]2C(=O)N3CCc4c([nH]c5ccccc45)[C@@H]3C[C@@H]21,4,2,3.0,i,-0.7
COc1ccc2c3c(n(C)c2c1)[C@H](CO)NCC31CCN(C(C)=O)CC1,1,1,-1.8,i,-3.2
COc1ccc(S(=O)(=O)N(C)C[C@H]2Oc3cc(C#CC4CCCCC4)ccc3S(=O)(=O)N([C@H](C)CO)C[C@H]2C)cc1,4,9,-3.6,i,-1.7
C[C@@H]1CN([C@H](C)CO)C(=O)c2cccc(NS(=O)(=O)c3cccs3)c2O[C@@H]1CN(C)C(=O)Nc1ccc(F)cc1,-3,-12,3.0,i,0.9
C[C@H]1CN([C@@H](C)CO)C(=O)c2cc(NC(=O)CCCCCC(=O)Nc3ccccc3N)ccc2O[C@@H]1CN(C)CC1CCCCC1,2,8,3.0,i,4.3
Cc1ccc(S(=O)(=O)NCC[C@@H]2CC[C@@H](NC(=O)c3cnccn3)[C@H](CO)O2)cc1,4,7,-3.2,i,-0.8
Cc1cccc(S(=O)(=O)N2C[C@H](O)COC[C@@H]3O[C@H](CC(=O)Nc4ccccc4)CC[C@H]32)c1,-5,-10,-1.6,i,-0.7
O=C(CNC(=O)c1ccccc1Br)Nc1cccc(S(=O)(=O)Nc2ccccc2Cl)c1,-8,-22,0.5,i,?
CO[C@@H]1CN(C)C(=O)c2ccc(NC(=O)C3CC3)cc2OC[C@H](C)N(CC2CCCC2)C[C@H]1C,-1,-10,4.1,i,-2.7
C#CCN(C[C@H]1[C@H](OC(=O)NCCCCCC)[C@H](OC(=O)NCCCCCC)C[C@H]2C(=O)N(c3ccccc3)C(=O)[C@@H]12)S(=O)(=O)c1ccc(C)cc1,21,26,6.0,i,-3.8
Cc1noc(C)c1S(=O)(=O)Nc1ccc2c(c1)C(=O)N([C@@H](C)CO)C[C@@H](C)[C@@H](CN(C)Cc1ccc(C(=O)O)cc1)OCCCC[C@@H](C)O2,1,-3,-0.6,i,-12
COc1ccc(CN(C)C[C@H]2Oc3c(NS(=O)(=O)c4ccc(F)cc4)cccc3C(=O)N([C@H](C)CO)C[C@H]2C)cc1,-1,-4,-1.9,i,0.0
NCC[C@@H]1CC[C@H](NS(=O)(=O)Cc2ccccc2)[C@@H](CO)O1,0,3,-0.6,i,-2.6
CN1C(=O)c2cc(NC(=O)C3CCCCC3)ccc2OC[C@H]2O[C@@H](CC(=O)NCCc3ccncc3)CC[C@@H]21,1,5,-0.2,i,0.4

# Results in rRNA inh HTS OD600 (2 entries from above):
smiles,rRNA inh HTS OD600
CO[C@@H]1CN(C)C(=O)c2ccc(NC(=O)C3CC3)cc2OC[C@H](C)N(CC2CCCC2)C[C@H]1C,-10
C#CCN(C[C@H]1[C@H](OC(=O)NCCCCCC)[C@H](OC(=O)NCCCCCC)C[C@H]2C(=O)N(c3ccccc3)C(=O)[C@@H]12)S(=O)(=O)c1ccc(C)cc1,26

# Carrying on:
SMILES,rRNA inh HTS,rRNA inh HTS OD600,rRNA inh HTS RFP,FGF22 binding,AF4-AF9 inh
CCCCOCCCNC(=O)C[C@H]1C[C@@]2(C(=O)OC)C(=C[C@H](C(C)(C)C)O[C@@H]2C)N(Cc2ccccc2)C1=O,7,-8,4.9,i,0.2
Cc1cccc(S(=O)(=O)N2CCCCN3[C@H](C2)[C@H](c2ccc(-c4cccnc4)cc2)[C@@H]3CO)c1,-27,-60,19,i,-3.3
O=C(O)CCC1(C(=O)O)CCC(=O)c2ccccc21 (stereo not given),17,18,0.8,i,1.5
C/C=C/c1cnc2c(c1)C(=O)N([C@@H](C)CO)C[C@H](C)[C@H](CN(C)C(=O)C1CCCCC1)O2,4,8,0.6,i,-2.3
Cc1cccc(C)c1NC(=O)CN1CCN(C(=O)CNC(=O)c2ccc(-c3ccccc3)cc2)CC1,1,1,0.8,i,-3.8
COc1ccccc1-c1ccc2c(c1)O[C@H](CN(C)S(=O)(=O)c1ccc(C)cc1)[C@H](C)CN([C@@H](C)CO)S2(=O)=O,5,18,-3.1,i,-1.3
C[C@H](O)C#Cc1ccc2c(c1)O[C@H](CN(C)Cc1ccncc1)[C@@H](C)CN([C@@H](C)CO)S2(=O)=O,-2,-15,-0.1,i,-0.8
C[C@@H]1CN([C@H](C)CO)C(=O)Cc2cc(NS(=O)(=O)c3ccc(Cl)cc3)ccc2O[C@@H]1CN(C)Cc1ccc(C(F)(F)F)cc1,-2,-2,0.3,i,-0.2
C[C@@H]1CN([C@@H](C)CO)S(=O)(=O)c2ccc(/C=C/c3ccccc3)cc2O[C@@H]1CN(C)Cc1cncnc1,-8,-32,14,i,19
CCC(=O)N1CC(=O)N2[C@@H](CO)[C@H](c3ccc(C#Cc4cccnc4)cc3)[C@@H]2C1,6,22,-5.9,i,-13

# Compound profiles, as listed above. Values in the order: rRNA inh HTS | rRNA inh HTS OD600 | rRNA inh HTS RFP | FGF22 binding | AF4-AF9 inh
# `C[C@H]1CN([C@@H](C)CO)C(=O)c2cc(NC(=O)CCCCCC(=O)Nc3ccccc3N)ccc2O[C@@H]1CN(C)CC1CCCCC1` reads 2 | 8 | 3.0 | i | 4.3
# `Cc1ccc(S(=O)(=O)Nc2ccc3c(c2)C(=O)N([C@H](C)CO)C[C@H](C)[C@H](CN(C)C(=O)Nc2c(C)noc2C)OCCCC[C@@H](C)O3)cc1` reads 5 | 11 | -0.3 | i | -2.4
# `CO[C@H]1CN(C)C(=O)c2cc(NC(=O)NC(C)C)ccc2OC[C@@H](C)N(C(=O)C2CCC2)C[C@H]1C` reads -1 | -4 | 0.3 | i | 1.2
# `O=C(CSc1nnc(-c2ccncc2)n1C1CC1)c1cccs1` reads -8 | 4 | -3.2 | i | 0.6
# `COc1ccc(Cl)cc1-c1noc([C@@H]2O[C@H](CO)[C@@H](O)[C@H]2O)n1` reads 7 | 7 | 0.6 | i | -0.9

# (continued)
SMILES,rRNA inh HTS,rRNA inh HTS OD600,rRNA inh HTS RFP,FGF22 binding,AF4-AF9 inh
O=C(CC1CC1)N1[C@H](CO)[C@@H](c2ccccc2)C12CN(Cc1ccccc1F)C2,-6,-3,7.2,i,1.9
COc1ccc2c3c([nH]c2c1)[C@H](CO)N(C(=O)c1cccc(F)c1)CC31CN(C(=O)c2cccc(F)c2)C1,-3,-17,7.6,i,3.3
CCCNC(=O)N(C)C[C@@H]1Oc2ncc(-c3ccccc3)cc2C(=O)N([C@@H](C)CO)C[C@@H]1C,3,2,-1.2,i,-1.3
C/C=C/c1ccc2c(c1)O[C@@H](CN(C)Cc1cccnc1)[C@H](C)CN([C@H](C)CO)S2(=O)=O,-8,-26,-5.8,i,6.1
c1coc(-c2cc3nc(NCc4ccc5c(c4)OCO5)ccn3n2)c1,-6,8,-6.3,i,1.1
COc1cccc(NC(=O)N(C)C[C@H]2Oc3cc(-c4ccccc4OC)ccc3S(=O)(=O)N([C@@H](C)CO)C[C@H]2C)c1,-5,-11,-1.7,i,3.5
C[C@@H]1CN([C@@H](C)CO)C(=O)c2ccccc2-c2ccccc2CO[C@H]1CN(C)C(=O)c1ccccc1,1,12,-2.0,i,2.2
Cc1noc(C)c1NC(=O)Nc1ccc2c(c1)C(=O)N([C@H](C)CO)C[C@@H](C)[C@@H](CN(C)C(=O)C1CCCCC1)OCCCC[C@H](C)O2,-1,4,0.5,i,1.0
CC(C)n1nnnc1C1c2ccccc2C(=O)N1CCCN1CCOCC1 (stereo not given),19,6,-1.4,i,0.0
CN(C)CCCNC(=O)C[C@H]1CC[C@@H](NS(=O)(=O)c2ccccc2)[C@@H](CO)O1,1,-1,0.6,i,-4.4
COc1ccc(NC(=O)N(C)C[C@@H]2OCCCC[C@H](C)Oc3ccc(NS(=O)(=O)c4ccc(Cl)cc4)cc3C(=O)N([C@@H](C)CO)C[C@@H]2C)cc1,2,-1,2.1,i,3.4
O=C(/C=C/c1ccccc1[N+](=O)[O-])Nc1cc(S(=O)(=O)N2CCOCC2)ccc1N1CCOCC1,-1,5,-2.5,i,3.8
CCOC(=O)CC1c2nc3ccccc3cc2CN1C(=O)OCC (stereo not given),-7,-5,0.7,i,-4.1
C[C@H]1CCCCO[C@H](CN(C)C(=O)CCCN(C)C)[C@@H](C)CN([C@@H](C)CO)C(=O)c2cc(NC(=O)Nc3cccc4ccccc34)ccc2O1,0,2,4.5,i,-2.5
CC(C)CC#Cc1ccc2c(c1)O[C@@H](CN(C)CC1CCOCC1)[C@H](C)CN([C@@H](C)CO)S2(=O)=O,-6,-19,5.6,i,3.3
Cc1ccc(S(=O)(=O)N2CCN(C(=O)/C=C/c3ccccc3)CC2)cc1C,-16,-26,0.5,i,1.9
C[C@@H]1CCCCO[C@@H](CN(C)S(=O)(=O)c2ccc(Cl)cc2)[C@H](C)CN([C@H](C)CO)C(=O)c2cc(N(C)C)ccc2O1,-3,1,0.0,i,9.3
C[C@H]1CN([C@@H](C)CO)C(=O)c2cccc(NS(=O)(=O)c3ccccc3)c2O[C@H]1CN(C)Cc1ccc2c(c1)OCO2,-2,1,1.4,i,-0.7

# The list is partial; count on the stated rates, not on these rows.
